# Biofilm kill mix: mixtures killing C. albicans biofilm; C. albicans biofilm persisters + clotrimazole, fluorescence viability; primary screen in compound mixtures of four per well; inhibition, % at 7.6 µM; 120,000 tested, 0.02% active;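 active = inhibition above 30.3% in the primary screen of four-compound pools, then above 30% when the compound was retested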;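 also: compounds exposed to preformed 24 h biofilms for 48 h; the number belongs to the whole pool; some results filed as inactive read as strong as hits; inactives centre near 12; 0% = biofilm with clotrimazole alone and 100% = kill control; retested singly at about 60 µM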
#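 Incubation: 24 h biofilm formation, then 48 h compound exposure, 37 °C | Material: C. albicans biofilms | Buffer or medium: RPMI/MOPS medium, pH 7.0 | Measured by: 2-h Alamar Blue fluorescence, 535/590 nm excitation/emission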
# Starred values were filed as active, the others as inactive. A portion of the library; the hit share may differ from the screen's.
SMILES,Biofilm kill mix
O=c1c2ccccc2n(CC(O)CN2CCCCC2)c2ccccc12 (stereo unspecified),18
O=C1c2cccc3c(N4CCOCC4)c([N+](=O)[O-])cc(c23)C(=O)N1c1cccc2ccccc12,9
CC12CN3CC(C)(CN(C1)C3c1ccc3c(c1)OCO3)C2 (stereo unspecified),20
O=c1cc(-c2ccccc2Cl)oc2c(NS(=O)(=O)c3cccs3)ccc(O)c12,14
CC(C)c1ccc(NC(=O)C(=O)C2C(=O)Nc3ccccc32)cc1 (stereo unspecified),11
COc1cc(S(=O)(=O)N(Cc2ccccn2)Cc2ccccc2Cl)ccc1-n1cnnn1,8
CCCOc1ccc(CC(=O)NNC(=S)Nc2ccccc2)cc1Br,10
O=C(Cn1cnc([N+](=O)[O-])n1)N/N=C/c1ccc2ccccc2c1,17
COc1ccc(C2c3ccsc3CCN2C(=O)NC(C)(C)C)cc1 (stereo unspecified),19
C/C(CCc1oc2c(Br)cc(Br)cc2c1-c1ccc(C)o1)=N\O,9
O=C(CN(c1ccccc1Cl)S(=O)(=O)c1ccccc1)N/N=C/c1ccccc1C(=O)O,27
CNc1c(N)c(=O)oc2ccccc12,-2
CCN1C(=O)S/C(=C/c2ccc(Sc3nc4ccccc4[nH]3)o2)C1=O,9
COCCN(C(=O)c1ccccc1OC)c1nnc(C)s1,24
COc1ccc(C(=O)Nc2ccccc2C(=O)N/N=C/c2ccncc2)cc1OC,14
Cc1ccc(NC(=O)CSc2n[nH]c(N)n2)cc1S(=O)(=O)N1CCOCC1,8
Cc1cc2nc(-c3ccccn3)c(-c3ccccn3)nc2cc1C,19
Cc1ccc(S(=O)(=O)NNC(=O)Nc2ccc(Cl)cc2)cc1,7
CCCNC(=O)c1ccc2c(=O)n3c(-c4ccc(C)cc4)csc3nc2c1,7
Cn1cccc1CC(=O)N/N=C/c1ccc([N+](=O)[O-])cc1,19
CC1(C)CC(=O)C(C2C3=C(CC(C)(C)CC3=O)Oc3ccccc32)C(=O)C1 (stereo unspecified),17
Fc1ccc(/C=N/NC(=S)Nc2ccc(Cl)cc2)cc1F,7
O=C(COC(=O)Cc1c[nH]c2ccccc12)Nc1ccccc1,9
COc1ccc(NCc2nnc(SCc3ccc(Cl)cc3)n2-c2ccccc2)cc1,0
COC(=O)CN(c1ccc(Cl)cc1C)S(C)(=O)=O,-9

# Looked up above:
# For Biofilm kill mix, O=c1cc(-c2ccccc2Cl)oc2c(NS(=O)(=O)c3cccs3)ccc(O)c12 is entered as 14
# For Biofilm kill mix, COCCN(C(=O)c1ccccc1OC)c1nnc(C)s1 is entered as 24

# Remaining list, next part.
SMILES,Biofilm kill mix
Cc1ccccc1/C=N/Nc1ccc(Cl)nn1,9
C#CCOCCOCCOCCNc1nc(N2CCN(C(=O)Cn3cc(CCCCN)nn3)CC2)nc(N2CCN(C(=O)[C@H](C(C)C)n3cc(CCO)nn3)CC2)n1,13
O=C(O)c1ccccc1C(=O)NCCc1c(C(=O)O)[nH]c2ccc(Cl)cc12,23
O=C(Nc1ccc(O)c(-c2nc3ccccc3s2)c1)c1cc(=O)c2ccccc2o1,7
CC(NC(=O)c1ccc(Cl)c(Cl)c1)c1ccc(-c2ccccc2)cc1 (stereo unspecified),16
CCCOC(=O)c1cc(NC(=O)/C=C/c2ccccc2)ccc1O,20
CCN1C(=O)S/C(=C/c2ccc(Oc3ccc([N+](=O)[O-])cn3)c(OC)c2)C1=O,15
CC1=NN(/C(=N\c2nnc(C)s2)Nc2ccccc2)[C@H](c2ccc(C)cc2)S1,11
CN=CC1=C(O)C(C(=O)OC)C(C)(C)CC1=O (stereo unspecified),2
CC1CCCC/C1=N\Nc1ccc(S(N)(=O)=O)cc1[N+](=O)[O-] (stereo unspecified),23
COc1ccc(C(=O)/C=C/Nc2ccc(S(=O)(=O)Nc3nc(C)cc(C)n3)cc2)cc1OC,19
COc1ccc(-c2cc(C(F)(F)F)n3ncc(C(=O)Nc4c(C)n(C)n(-c5ccccc5)c4=O)c3n2)cc1,13
CC1CN(S(=O)(=O)c2cccc(C(=O)Nc3ccc(S(=O)(=O)Nc4ncccn4)cc3)c2)CC(C)O1 (stereo unspecified),6
CC(=O)N(CCCCl)C(C#N)c1ccccc1 (stereo unspecified),4
Cc1ccc2[nH]c(O)c(N=NC(=O)CCc3ccccc3)c2c1Br,16
Cn1nnc2cc(C(=O)Nc3ccccc3)ccc21,9
CCCS(=O)(=O)c1c(S(=O)(=O)CCC)c2c(N)cccn2c1C(=O)c1ccc(Br)cc1,13
O=C(CNS(=O)(=O)c1cccs1)NCc1ccccc1,25
O=C(/C=C/c1ccco1)OCc1nnc(-c2ccccc2)o1,13
COc1ccc(S(=O)(=O)N2CCN(c3ccccc3)CC2)cc1,25
Cn1c(=O)cc(SCC(=O)NCCC2=CCCCC2)c2ccccc21,12
O=C(Nc1ccccc1Cl)NC1(C(=O)N2CCCC2)CCCCC1,12
CCCCn1cnc2c(=S)nc(N)[nH]c21,4
c1cnc2ccc3ncccc3c2c1,16
O=C(COC(=O)C1CC(=O)N(Cc2ccccc2)C1)c1ccc(F)cc1 (stereo unspecified),-2
# Further structures follow.
SMILES,Biofilm kill mix
COc1ccc(-c2c(-c3ccc(O)cc3O)n[nH]c2C(F)(F)F)cc1,14
O=C(CN1CCOCC1)N/N=C/c1ccc(-c2cccc(Cl)c2Cl)o1,21
CSC1=N/C(=C\c2c(F)cccc2Cl)C(=O)S1,8
COc1cccc(CN2CCN(Cc3cccc4c3OCO4)CC2CCO)c1 (stereo unspecified),-1
COc1cc(C(=O)Nc2ccc3oc(-c4cccnc4)nc3c2)cc(OC)c1OC,11
CCc1nnc(NC(=O)C=C(C)C)s1,6
CN(C)CC(C)(C)CNC(=O)c1cc(Br)cc(Br)c1O,7
O=C(CSc1ncn[nH]1)N1c2ccccc2Sc2ccccc21,18
Cc1ccc(CN2CCN(/N=C/c3cc(Br)cc(Br)c3O)CC2)c(C)c1,10
CCCS(=O)(=O)N1CCN(CCN2C(=O)c3cccc4cccc(c34)C2=O)CC1,-7
CCC(=O)NC(=S)Nc1ccc(NC(=O)CC)cc1,19
O=CC1=C(N2CCOCC2)/C(=C/c2ccc(Cl)cc2)CC1,15
O=C(N/N=C/c1ccc[nH]1)c1cc(-c2ccc(Cl)cc2)nc2ccccc12,5
CCCCNC(C(=O)Nc1ccc(Cl)c([N+](=O)[O-])c1)c1ccccc1 (stereo unspecified),15
Cc1cc(C)c(C#N)c(SCC(=O)Nc2ccccc2C)n1,13
Cc1ccc(S(=O)(=O)Nc2nc3cc(C)c(C)cc3[nH]2)cc1,9
Cn1c(=O)n(Cc2ccccc2Br)c2ccccc21,0
CCOCCCn1c(SCC(=O)Nc2cc(C(C)(C)C)nn2-c2ccccc2)nc2ccccc2c1=O,5
Cc1ccc(C(=O)NCC(=O)OC(C)C(=O)Nc2ccc(N3CCOCC3)cc2)s1 (stereo unspecified),15
Cc1ccc(C(=O)NC(=S)NCc2cccnc2)c(C)c1,11
Oc1ccc(CCC2CCCCN2Cc2nc(C3CC3)no2)cc1 (stereo unspecified),6
O=C(CSc1nnc(-c2ccncc2)n1-c1ccc(Cl)cc1)Nc1ccc(C(=O)O)cc1,12
COc1ccc(OCC(=O)Nc2ccc(S(=O)(=O)N3CCN(C)CC3)cc2)cc1,14
COc1ccc(NC(=S)N(CCCN2CCCCC2)Cc2cccs2)cc1,12
Cc1ccc(Sc2cc(C)nc(-c3ccccn3)n2)cc1,23

# Arranged by molar mass (descending): some entries from above.
SMILES,Biofilm kill mix
Cc1ccc(CN2CCN(/N=C/c3cc(Br)cc(Br)c3O)CC2)c(C)c1,10
COc1cccc(CN2CCN(Cc3cccc4c3OCO4)CC2CCO)c1 (stereo unspecified),-1
O=C(CN1CCOCC1)N/N=C/c1ccc(-c2cccc(Cl)c2Cl)o1,21
CCCNC(=O)c1ccc2c(=O)n3c(-c4ccc(C)cc4)csc3nc2c1,7
CC1(C)CC(=O)C(C2C3=C(CC(C)(C)CC3=O)Oc3ccccc32)C(=O)C1 (stereo unspecified),17
O=C(Nc1ccccc1Cl)NC1(C(=O)N2CCCC2)CCCCC1,12
CC1CCCC/C1=N\Nc1ccc(S(N)(=O)=O)cc1[N+](=O)[O-] (stereo unspecified),23
CCCOC(=O)c1cc(NC(=O)/C=C/c2ccccc2)ccc1O,20
CC(C)c1ccc(NC(=O)C(=O)C2C(=O)Nc3ccccc32)cc1 (stereo unspecified),11
Cc1ccc(S(=O)(=O)Nc2nc3cc(C)c(C)cc3[nH]2)cc1,9
Cc1cc2nc(-c3ccccn3)c(-c3ccccn3)nc2cc1C,19
COCCN(C(=O)c1ccccc1OC)c1nnc(C)s1,24
O=CC1=C(N2CCOCC2)/C(=C/c2ccc(Cl)cc2)CC1,15
Cc1ccc(C(=O)NC(=S)NCc2cccnc2)c(C)c1,11
CSC1=N/C(=C\c2c(F)cccc2Cl)C(=O)S1,8
CC12CN3CC(C)(CN(C1)C3c1ccc3c(c1)OCO3)C2 (stereo unspecified),20
CNc1c(N)c(=O)oc2ccccc12,-2

# (more compounds)
SMILES,Biofilm kill mix
COc1ccc(NC(=O)COc2ccc(/C=N/NC(=O)c3cccnc3)cc2OC)cc1,11
COc1ccc(/C=N/NC(=O)COc2cccc3cccnc23)cc1OC,3
C(=C\c1ccccc1)/C=N/Nc1nncc(-c2ccccc2)n1,-5
C/C(=N\N=C1/NC(=O)C(C)S1)c1ccco1 (stereo unspecified),8
COCCn1c(SCC(=O)NNC(=O)c2ccc(OC)c(OC)c2)nc2ccccc2c1=O,8
CCc1nnc(NC(=O)COc2ccccc2[N+](=O)[O-])s1,14
O=C(CCc1nnc(CCCc2ccccc2)o1)NCCc1ccco1,3
O=C(NNC(=O)c1ccc(Oc2cc(Cl)cc(Cl)c2)o1)c1ccccc1,21
COC(=O)c1ccc(OCCN2CCCCCC2)cc1,14
COCCCNC(=O)c1ccc(-c2csc(C)n2)cc1,-18
Cc1ccc(S(=O)(=O)N2CCC(n3nnc4cc(C)ccc43)CC2)cc1,12
O=C(N/N=C/c1cc([N+](=O)[O-])cc([N+](=O)[O-])c1O)/C(=C\c1cccs1)NC(=O)c1ccccc1,24
COc1ccc(C)cc1S(=O)(=O)N(CC(=O)Nc1cccc([N+](=O)[O-])c1)c1ccc(C)cc1,17
NS(=O)(=O)c1ccc(N/N=C/c2ccc[nH]2)c([N+](=O)[O-])c1,16
O=C(Cn1cc(C(=O)C(F)(F)F)c2ccccc21)NCc1ccco1,13
CC(NC(=O)Nc1ccc(Br)cc1)C(C)(C)C (stereo unspecified),10
COc1ccc(N/N=C(\C#N)C(=O)NCCc2ccc(OC)c(OC)c2)cc1,14
COc1ccc(Br)cc1CNC(C)c1ccccc1 (stereo unspecified),11
CCc1ccc2c(COC(=O)CNS(=O)(=O)c3ccc(NC(C)=O)cc3)cc(=O)oc2c1,12
COCCN=C1NN=C(c2ccc(NC(C)=O)cc2)CS1,10
O=C(NC(=S)Nc1ccc2c(c1)OCO2)c1ccc(Cl)cc1,-11
Cc1ccc(S(=O)(=O)N2CCC(C(=O)Nc3nnc(-c4ccc(F)cc4)s3)CC2)cc1,16
COC(=O)C1=C(C)NC(=O)/C1=C\c1cc(C)n(-c2ccc(F)cc2)c1C,-3
COc1cc(OC)cc(C(=O)N[C@H](C(=O)Nc2ccc3c(c2)OCO3)C(C)C)c1,21
CN(Cc1ccccc1)C(=O)c1ccco1,10
# Next section
SMILES,Biofilm kill mix
O=C(c1ccccc1)N1CCN(C(=O)c2ccccc2)CC1,12
Clc1ccccc1OCc1nnc2n1CCCCC2,12
CCC(=O)NNc1nc2c(F)cc(F)cc2s1,19
CN1CCc2nc(NC(=O)COc3ccc(C#N)cc3)sc2C1,18
Cc1ccc(NC(=O)COC(=O)CNC(=O)c2ccco2)cc1,6
O=C1NC[C@H](Cc2ccccc2)N(CCc2cccc(F)c2)C1=O,13
CCNc1nc(CN2CCCCC2)nc2scc(-c3ccccc3)c12,19
C#CCOCCOCCOCCNc1nc(N2CCN(C(=O)[C@H](CCC(=O)O)n3cc(C(N)CC(C)C)nn3)CC2)nc(N2CCN(C(=O)[C@H](Cc3cc4ccccc4[nH]3)n3cc(C(N)[C@H](C)CC)nn3)CC2)n1 (stereo partly specified),14
COC(=O)c1ccc(Cl)cc1N(Cc1c(F)cccc1Cl)S(C)(=O)=O,20
Cc1ccc2nc(C(F)C(F)(F)F)[nH]c2c1 (stereo unspecified),13
CCN(C(=O)CSc1nc2ccccc2n1CC)C1CCS(=O)(=O)C1 (stereo unspecified),15
O=C(Nc1ccccc1)Oc1ccc[nH]c1=O,7
OCC1(Cc2cccc(C(F)(F)F)c2)CCN(Cc2cc3ccccc3o2)CC1,5
COc1ccc(Cn2nnnc2CN(CCCN2CCOCC2)Cc2cc3cc(OC)ccc3[nH]c2=O)cc1,21
CCOCCCNCc1cc(Cl)cc(Cl)c1OCC,8
O=C(Cn1cnc2cc([N+](=O)[O-])ccc2c1=O)Nc1cccc(S(=O)(=O)N2CCOCC2)c1,7
CCOC(=O)c1nn(-c2ccc(F)cc2)c(=O)c2c(N)scc12,19
O=C(OC1CCOC1=O)c1cccc(S(=O)(=O)Nc2cccc(Cl)c2)c1 (stereo unspecified),4
Clc1ccc(-c2ccc(CNCC3CCCO3)o2)cc1 (stereo unspecified),19
COc1ccccc1C(=O)Nc1ccc(C)cc1C(=O)c1ccccc1,10
O=c1c2ccccc2c(-c2ccccc2)nn1Cc1ccccc1,15
CCOCCCNC(=O)C1CCN(S(=O)(=O)c2ccc(C)cc2)CC1,13
Cc1cc(S(=O)(=O)Nc2ccc3c(c2)n(C)c(=O)n3C)ccc1F,29
Cc1cc(C)c(C(=O)CSc2nnc(C)s2)c(C)c1,11
CCO[C@H]1OC(C(=O)N2CCCCCCC2)=C[C@@H](c2csc3ccccc23)[C@@H]1CCCO,13
COCCNC(=O)COC(=O)C1=Cc2ccccc2OC1,0

# Screening results from PubChem.
